Screening results from PubChem BioAssay.
Vaccinia inh = blocks a specific stage of Vaccinia orthopoxvirus infection, primary screen, cell-based, single point; Vaccinia-infected cells, mCherry/Venus stage reporter fluorescence; hits give low values; some inactives read as strong as hits; activity change (mCherry), % (concentration not given with the values); actives 0.01% (n = 89,000); AID 1053133, 2014;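 active means mCherry past -33% and 40 or more points under the early reporter, replicates agreeing; inconclusive means past -33% without that gap or agreement; tested in A549 cells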;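 further: scaled between vehicle wells and reference inhibitor wells; 23 nL library stock went into each well; one replicate is shown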
Vaccinia inh Venus = also measured in Vaccinia inh; calls as there; activity change (Venus), %; measured here: Venus reporter, other viral stage;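 negative = less Venus signal; first of two replicates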
The depositor's hits bear a star; ? = inconclusive; . = not tested or not shown; & = joins results of further samples. An excerpt; rates above refer to the full screens.

compound,Vaccinia inh Venus,Vaccinia inh
O=C(C[C@H]1C=C[C@H](NS(=O)(=O)c2ccccc2)[C@H](CO)O1)NCc1ccncn1,17,5
O=C(NCC[C@H]1CC[C@@H](NC(=O)C2CC2)[C@@H](CO)O1)Nc1ccc(Cl)cc1,1,-2
COc1ccccc1S(=O)(=O)N[C@H]1CC[C@H](CCNC(=O)C2CCC2)O[C@@H]1CO,-7,-3
C[C@@H]1CCCCO[C@H](CN(C)S(=O)(=O)c2ccccc2)[C@@H](C)CN([C@H](C)CO)C(=O)c2cc(NS(=O)(=O)c3cccs3)ccc2O1,15,30
C[C@H]1CN([C@@H](C)CO)C(=O)c2cc(/C=C/c3ccccc3)cnc2O[C@@H]1CN(C)S(=O)(=O)c1ccccc1F,.,?
C[C@@H]1CN([C@H](C)CO)C(=O)c2cc(C3=CCCC3)cnc2O[C@@H]1CN(C)C(=O)C1CCCCC1,6,-1
CC(C)NC(=O)Nc1ccc2c(c1)C(=O)N([C@@H](C)CO)C[C@@H](C)[C@@H](CN(C)S(=O)(=O)c1cn(C)cn1)OCCCC[C@@H](C)O2,6,7
COc1ccc(C#Cc2ccc([C@@H]3[C@H]4CN(C(=O)c5ccncc5)CCCCN4[C@H]3CO)cc2)cc1,.,?
C[C@@H]1CN([C@H](C)CO)C(=O)Cc2cc(NC(=O)C3CC3)ccc2O[C@H]1CN(C)Cc1ccc(Cl)c(Cl)c1,-23,-32
O=C(C[C@H]1CC[C@@H](NC(=O)C2CCC2)[C@@H](CO)O1)NCc1ccncc1,6,4
COc1ccc(S(=O)(=O)N(C)C[C@@H]2Oc3ccc(NS(=O)(=O)c4ccc(F)cc4)cc3C(=O)N([C@H](C)CO)C[C@@H]2C)cc1,-3,11
O=C(c1ccncc1)N1CC(=O)N2[C@H](CO)[C@H](c3ccc(-c4ccccc4F)cc3)[C@H]2C1,-1,6
CO[C@@H]1CN(C)C(=O)c2ccc(NC(=O)Nc3ccccc3Cl)cc2OC[C@H](C)NC[C@@H]1C,-7,-14
C[C@H](NC(=O)C[C@H]1CC[C@H](NC(=O)C2CC2)[C@H](CO)O1)c1ccccc1,5,13
Cc1noc(C)c1S(=O)(=O)Nc1ccc2c(c1)CC(=O)N([C@H](C)CO)C[C@H](C)[C@H](CN(C)Cc1ccncc1)O2,8,2
CCNC(=O)[C@@H]1[C@@H](CO)[C@@H]2Cn3c(cccc3=O)[C@@H]2N1Cc1cccc(F)c1,8,3
CO[C@H]1CN(C)C(=O)c2ccc(NC(=O)C3CCOCC3)cc2OC[C@@H](C)N(Cc2cccnc2)C[C@@H]1C,9,14
COCC(=O)N(C)C[C@H]1Oc2ncc(-c3ccc(C#N)cc3)cc2C(=O)N([C@@H](C)CO)C[C@@H]1C,9,3
CCCC#Cc1ccc([C@H]2[C@@H](CO)N3CCCCN(S(C)(=O)=O)C[C@@H]23)cc1,-11,3
COc1ccc(-c2ccc([C@H]3[C@H]4CNCC(=O)N4[C@H]3CO)cc2)cc1,15,26
C[C@@H]1CN([C@@H](C)CO)C(=O)Cc2cc(NS(=O)(=O)c3cn(C)cn3)ccc2O[C@H]1CN(C)Cc1ccncc1,1,9
C[C@H]1CCCCO[C@@H](CN(C)CC2CCCCC2)[C@@H](C)CN([C@@H](C)CO)C(=O)c2cc(NC(=O)Cc3ccccc3)ccc2O1,.,?
COc1ccc(S(=O)(=O)N(C)C[C@H]2Oc3ccc(NC(=O)Cc4ccccc4)cc3C(=O)N([C@H](C)CO)C[C@@H]2C)cc1,2,0
CN1C(=O)c2cc(NC(=O)Nc3cccc(Cl)c3)ccc2OC[C@H]2O[C@H](CC(=O)O)CC[C@H]21,2,3
COc1ccccc1C#Cc1ccc2c(c1)O[C@@H](CN(C)Cc1ccccc1)[C@H](C)CN([C@H](C)CO)S2(=O)=O,.,?
COc1ccc(NC(=O)N(C)C[C@@H]2Oc3ccc(NS(=O)(=O)c4ccc(Cl)cc4)cc3C(=O)N([C@@H](C)CO)C[C@@H]2C)cc1,7,7
C[C@H](CO)N1C[C@H](C)[C@@H](CN(C)Cc2ccccc2)Oc2ncc(C3=CCCCC3)cc2C1=O,-19,-33
Cc1noc(C)c1S(=O)(=O)Nc1ccc2c(c1)C(=O)N([C@H](C)CO)C[C@@H](C)[C@@H](CN(C)CC1CCCCC1)O2,3,-1
C[C@H]1CN([C@@H](C)CO)C(=O)c2cc(-c3cccnc3)cnc2O[C@@H]1CN(C)C(=O)Nc1ccc2c(c1)OCO2,12,13
COc1ccc(NC(=O)N2[C@@H]3CNC[C@H]2C3c2ccc(-c3cccc(OC)c3)cc2)cc1 (stereo partly drawn),18&-11,-2&-18

Part of the list above, with each value named.
Molecule: C[C@@H]1CN([C@H](C)CO)C(=O)Cc2cc(NC(=O)C3CC3)ccc2O[C@H]1CN(C)Cc1ccc(Cl)c(Cl)c1
  Vaccinia inh Venus = -23
  Vaccinia inh = -32

Molecule: CCCC#Cc1ccc([C@H]2[C@@H](CO)N3CCCCN(S(C)(=O)=O)C[C@@H]23)cc1
  Vaccinia inh Venus = -11
  Vaccinia inh = 3

Molecule: Cc1noc(C)c1S(=O)(=O)Nc1ccc2c(c1)C(=O)N([C@H](C)CO)C[C@@H](C)[C@@H](CN(C)CC1CCCCC1)O2
  Vaccinia inh Venus = 3
  Vaccinia inh = -1

Molecule: C[C@H](CO)N1C[C@H](C)[C@@H](CN(C)Cc2ccccc2)Oc2ncc(C3=CCCCC3)cc2C1=O
  Vaccinia inh Venus = -19
  Vaccinia inh = -33

Remaining list, next part.
compound,Vaccinia inh Venus,Vaccinia inh
O=C(c1ccccc1)N1CC(=O)N2[C@H](CO)[C@H](c3ccc(C#Cc4ccccc4)cc3)[C@@H]2C1,-3,-11
CCCNC(=O)N1CC2(C1)[C@@H](c1ccccc1)[C@@H](CO)N2C(=O)C1CCCC1,0,-9
O=C1CNC[C@H]2[C@@H](c3ccc(C4=CCCCC4)cc3)[C@H](CO)N12,1,-5
O=C(NCC1CC1)[C@H]1[C@H](CO)[C@H]2Cn3c(ccc(-c4ccccc4)c3=O)[C@@H]1N2Cc1nccs1,2,8
CC(C)NC(=O)N(C)C[C@@H]1Oc2c(NC(=O)Nc3cccc4ccccc34)cccc2C(=O)N([C@@H](C)CO)C[C@@H]1C,-20,-24
C[C@H]1CCCCO[C@H](CN(C)CC2CCCCC2)[C@@H](C)CN([C@@H](C)CO)C(=O)c2cc(NS(=O)(=O)c3cccs3)ccc2O1,.,?
CC=Cc1ccc2n(c1=O)C[C@@H]1[C@@H](CO)[C@H](C(=O)NCC3CC3)[C@H]2N1CCC (mixture of isomers),4,-3
O=C(C[C@H]1CC[C@H]2[C@@H](COC[C@@H](O)CN2C(=O)Nc2ccc(Cl)cc2)O1)NC1Cc2ccccc2C1,0,-11
NCC[C@@H]1CC[C@H](NC(=O)CCN2CCCCC2)[C@H](CO)O1,7,7
C[C@@H]1CN([C@H](C)CO)C(=O)c2cc(NC(=O)C3CCCCC3)ccc2O[C@@H](C)CCCCO[C@H]1CN(C)C(=O)C1CCCCC1,.,?
CN(C)C(=O)[C@@H]1[C@@H](CO)[C@@H]2Cn3c(ccc(-c4ccccc4F)c3=O)[C@@H]2N1C(=O)C1CC1,1,-1
C[C@@H]1CN([C@@H](C)CO)S(=O)(=O)c2ccc(C#CC(C)(C)O)cc2O[C@@H]1CN(C)Cc1ccc(F)cc1,-26,-29
C[C@@H]1CN([C@@H](C)CO)C(=O)c2ccccc2-c2ccccc2CO[C@@H]1CN(C)C,-3,6
Cc1noc(C)c1NC(=O)Nc1ccc2c(c1)C(=O)N([C@@H](C)CO)C[C@@H](C)[C@@H](CN(C)C(=O)Nc1ccccc1)OCCCC[C@H](C)O2,2,12
Cc1ccc(S(=O)(=O)Nc2ccc3c(c2)C(=O)N([C@H](C)CO)C[C@@H](C)[C@H](CN(C)C(=O)Nc2c(C)noc2C)OCCCC[C@@H](C)O3)cc1,9,18
C[C@@H]1CCCCO[C@@H](CN(C)Cc2ccc(Cl)c(Cl)c2)[C@@H](C)CN([C@H](C)CO)C(=O)c2cc(NC(=O)c3ccccc3)ccc2O1,-12,-30
COc1cccc(S(=O)(=O)N2CC[C@@H]3[C@H](CO)Nc4ccc(C#Cc5cccnc5)cc4[C@@H]32)c1,-4,-1
CN(C)C(=O)c1cccc(-c2ccccc2[C@@H]2[C@@H](C#N)N(C(=O)C3CCC3)[C@H]2CO)c1,10,12
C[C@H](CO)N1C[C@H](C)[C@H](CN(C)Cc2ccc3c(c2)OCO3)Oc2ccc(N(C)C)cc2CC1=O,10,0
O=C(C[C@@H]1CC[C@@H](NC(=O)C2CCOCC2)[C@@H](CO)O1)Nc1ccccc1,7,4
COc1ccc(CN(C)C[C@@H]2Oc3c(NS(=O)(=O)c4ccc(Cl)cc4)cccc3C(=O)N([C@H](C)CO)C[C@@H]2C)cc1,-21,-25
C[C@@H]1CCCCO[C@@H](CN(C)C(=O)Nc2ccc(C(F)(F)F)cc2)[C@H](C)CN([C@@H](C)CO)C(=O)c2cc(NC(=O)c3ccncc3)ccc2O1,-4,-4
C[C@@H]1CN([C@@H](C)CO)C(=O)c2cc(C#CC3(O)CCCC3)cnc2O[C@H]1CN(C)C(=O)C1CCC1,14,26
CC(C)CC#Cc1ccc2c(c1)O[C@@H](CN(C)Cc1ccc3c(c1)OCO3)[C@@H](C)CN([C@@H](C)CO)S2(=O)=O,.,?
C[C@@H]1CN([C@H](C)CO)C(=O)Cc2cc(NS(=O)(=O)c3cn(C)cn3)ccc2O[C@@H]1CN(C)C(=O)Nc1ccc(F)cc1,1,9
COC(=O)[C@H]1[C@H](CO)[C@H]2Cn3c(ccc(-c4ccccc4)c3=O)[C@H]2N1CC1CCCCC1,-14,-23
COc1ccc(S(=O)(=O)N(C)C[C@@H]2OCCCC[C@H](C)Oc3ccc(NC(=O)NC4CCCCC4)cc3C(=O)N([C@H](C)CO)C[C@H]2C)cc1,1,3
C[C@H](CO)N1C[C@H](C)[C@H](CN(C)C(=O)CN2CCOCC2)Oc2cc(/C=C/c3ccccc3)ccc2S1(=O)=O,-11,-12
O=S(=O)(Cc1ccccc1)NCC[C@H]1CC[C@@H](NS(=O)(=O)c2ccccc2)[C@@H](CO)O1,1,7
O=C(Nc1ccc(F)cc1)N[C@H]1CC[C@@H](CC(=O)N2CCCCC2)O[C@H]1CO,-2,-5

Continued.
compound,Vaccinia inh Venus,Vaccinia inh
C[C@@H]1CN([C@H](C)CO)C(=O)c2cccc(NS(=O)(=O)c3cccs3)c2O[C@H]1CN(C)C(=O)Nc1ccc2c(c1)OCO2,10,13
COc1ccc(CN(C)C[C@@H]2Oc3c(NC(=O)C4CCCCC4)cccc3C(=O)N([C@@H](C)CO)C[C@H]2C)cc1,-6,-16
COc1cccc(-c2ccc([C@H]3[C@@H](CO)N4CCCCN(S(=O)(=O)c5cn(C)cn5)C[C@H]34)cc2)c1,5,11
O=C(C[C@@H]1CC[C@H]2[C@@H](COC[C@H](O)CN2Cc2ccccc2F)O1)NCc1ccccc1F,-3,0
CCC(=O)N1[C@H](CO)[C@H](c2ccc(C3=CCCC3)cc2)C12CN(C(=O)COC)C2,13,13
Cc1noc(C)c1S(=O)(=O)Nc1ccc2c(c1)C(=O)N([C@H](C)CO)C[C@@H](C)[C@@H](CN(C)S(=O)(=O)c1cccs1)O2,4,-2
C[C@H](CO)N1C[C@H](C)[C@H](CN(C)S(=O)(=O)c2cccs2)Oc2ncc(C#Cc3ccc(F)cc3)cc2C1=O,.,?
C[C@H]1CN([C@@H](C)CO)C(=O)Cc2cc(NC(=O)Cn3cnnn3)ccc2O[C@@H]1CN(C)Cc1ccc(-c2ccccc2)cc1,-3,5
C[C@@H]1CN([C@@H](C)CO)C(=O)c2cc(N(C)C)ccc2O[C@@H](C)CCCCO[C@@H]1CN(C)C,-6,-8
CCNC(=O)[C@H]1[C@H](CO)[C@H]2Cn3c(ccc(-c4ccc(OC)cc4)c3=O)[C@@H]1N2CC,9,3
C[C@@H]1CCCCO[C@H](CN(C)C(=O)c2ccccc2)[C@@H](C)CN([C@H](C)CO)C(=O)c2cc(NS(=O)(=O)c3ccc(Cl)cc3)ccc2O1,-14,-9
C[C@@H]1CCCCO[C@H](CN(C)C(=O)Nc2ccccc2)[C@H](C)CN([C@H](C)CO)C(=O)c2cc(N(C)C)ccc2O1,-10,-11
C[C@H](CO)N1C[C@H](C)[C@H](CN(C)C(=O)c2cccc(F)c2)Oc2cc(-c3cccnc3)ccc2S1(=O)=O,13,8
C[C@H](CO)N1C[C@H](C)[C@@H](CN(C)C(=O)NC2CCCCC2)Oc2c(NS(=O)(=O)c3ccccc3)cccc2C1=O,-7,-8
CC(C)CC#Cc1ccc([C@@H]2[C@H](CO)N3CCCCN(S(=O)(=O)Cc4ccccc4)C[C@@H]23)cc1,.,?
CC(C)NC(=O)N(C)C[C@@H]1OCCCC[C@@H](C)Oc2ccc(NS(=O)(=O)c3ccccc3)cc2C(=O)N([C@H](C)CO)C[C@@H]1C,22,19
